VDR inhibitor = inhibitors of human vitamin D receptor; VDR-SRC2-3 peptide fluorescence polarization, 2 h; Potency, µM, without a hit: max response, negative = inhibition, usual class: inhibitors; hit rate 0.93% among 400,000; AID 504847; active means well fitted inhibition curve with a large enough effect; inconclusive means small, poorly fitted or top-dose-only effect, or another doubt; inactive means no such curve, though single readings can be large or run the other way; further: series mostly up to about 120 µM
Target sequence (P11473 whole entry, looked up): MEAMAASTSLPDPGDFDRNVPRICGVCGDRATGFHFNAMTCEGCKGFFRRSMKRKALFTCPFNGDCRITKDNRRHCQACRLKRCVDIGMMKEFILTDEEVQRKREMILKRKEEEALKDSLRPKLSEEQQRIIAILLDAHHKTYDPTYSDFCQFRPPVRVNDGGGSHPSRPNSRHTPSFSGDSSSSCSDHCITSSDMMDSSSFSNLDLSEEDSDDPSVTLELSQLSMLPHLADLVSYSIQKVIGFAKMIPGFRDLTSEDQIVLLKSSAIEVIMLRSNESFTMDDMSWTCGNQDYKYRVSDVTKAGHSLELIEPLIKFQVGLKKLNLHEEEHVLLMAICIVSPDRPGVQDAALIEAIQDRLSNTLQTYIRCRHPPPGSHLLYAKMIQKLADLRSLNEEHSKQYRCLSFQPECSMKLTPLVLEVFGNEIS
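Signal is fluorescence polarization, reporting how far test compounds block the interaction of VDR with the SRC2-3 coregulator peptide after a 2 h room-temperature incubation.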
Starred values were filed as active, the others as inactive; ? = inconclusive; & = joins results of further samples. On the % scale 0 is the no-effect control and ±100 the full control effect; potency means the concentration at half of the fitted maximal effect. The list is partial (hit frequency here may not be typical).

Preview:
SMILES | VDR inhibitor
C[C@H](CO)N1C[C@H](C)[C@@H](CN(C)S(=O)(=O)c2ccc(F)cc2)Oc2ccc(NC(=O)Nc3ccc4c(c3)OCO4)cc2C1=O | 21%
CCCCN(CCCC)S(=O)(=O)c1ccc(NC(=O)CN2CCOCC2)cc1 | -3%

The list itself, repeating the preview:
SMILES | VDR inhibitor
C[C@H](CO)N1C[C@H](C)[C@@H](CN(C)S(=O)(=O)c2ccc(F)cc2)Oc2ccc(NC(=O)Nc3ccc4c(c3)OCO4)cc2C1=O | 21%
CCCCN(CCCC)S(=O)(=O)c1ccc(NC(=O)CN2CCOCC2)cc1 | -3%
CNC(=O)CCSSCCC(=O)NC | -5%
CCOc1ccc(CN(C)C(=O)c2ccc3c(c2)NC(=O)C(C)S3)cc1OC (configuration not stated) | 4%
C=CCC[C@@H](Cc1ccc(F)cc1)C(=O)OC[C@@H](NC(=O)[C@@H](CC=C)CC(=O)N(CCO)Cc1ccccc1)c1ccccc1 | -20%
Cc1ccnc(NC(=O)CCC(=O)N(CC(=O)NCc2ccc(F)cc2)CC2CCCO2)c1 (configuration not stated) | -9%
Cc1cc(N2C(=O)c3ccc(C(=O)NCc4ccccc4)cc3C2=O)no1 | 2%
Cn1c(=O)c2c(nc(SCCNS(=O)(=O)c3ccccc3)n2C)n(C)c1=O | 2%
CN(c1ccccc1)S(=O)(=O)c1cccc(C(=O)Nc2ccc3c(c2)CCC3)c1 | 1%
COc1ccc(N(C)C(=O)c2ccc3snnc3c2)cc1 | -2%
Cc1ccc(-c2cc(C(=O)NC(C)c3ccccc3)c3ccccc3n2)cc1C (configuration not stated) | 4%
COc1ccc(/C=N/NC(=O)CNC(=O)c2cccs2)cc1 | -16%
C/C(=N\OC(=O)c1c(-c2c(F)cccc2Cl)noc1C)c1nccs1 | 13%
CC(=O)N(c1cccc(C(F)(F)F)c1)c1nc(/C=C/C(=O)O)cs1 | -7%
CSC1=NCCN1C(=O)c1ccc2ccccc2c1 | -16%
O=C1N=c2ccccc2=C1c1c(O)n(-c2cccc(F)c2)[nH]c1=O | 71µM*
Cc1nn(Cc2ccc(C(=O)N3c4ccc(F)cc4CCC3C)o2)c(C)c1Br (configuration not stated) | -6%
Cc1ccc(OCCC(=O)OCC(=O)Nc2cc(C)cc(C)c2)cc1 | -3%
CC(C)Cn1c(SCC(=O)NCCCN2CCCC2=O)nc2ccccc21 | 10%
O=C1N(CC(=O)N2CCc3ccccc32)CCN1Cc1ccc(Cl)cc1 | -10%
CC(=O)c1cccc(NC(=O)c2cc(Cl)sc2Cl)c1 | -24%
CCn1cc(C(=O)N[C@@H](C)C(=O)OC)c(=O)c2cc3c(cc21)OCO3 | 4%
CC(=O)N1CCN(C(=O)CCc2nc3sc4c(c3c(=O)[nH]2)CCCC4)CC1 | -6%
O=C(/C=C/c1ccco1)Nc1cccnc1Cl | -18%
Cc1c(Cl)cccc1NC(=O)CSCC(N)=O | -4%
COc1cc2c(cc1NC(=O)CSc1nnc(Cc3cccs3)n1Cc1ccco1)oc1ccccc12 | ?
CN1CCN(c2ncc3nc(-c4cc(F)cc(F)c4)c(=O)n(-c4ccccc4)c3n2)CC1 | ?
O=C(CSc1nc2ccccc2c(=O)n1Cc1ccccc1)Nc1ccc(Br)cc1C(=O)O | ?
COc1ccc(C(=O)NCC2CCCO2)cc1 (configuration not stated) | -7%
Cc1cc2ccccc2cc(C)c1=O | -7%
CSc1ccc(-c2nc3ccc(C)cn3c2Nc2ccccc2C)cc1 | 2%
CCc1ccccc1NC(=O)c1ccc(Cn2nc(N3CCN(c4ccccc4)CC3)ccc2=O)o1 | 1%

As entered above.
Entry of `CSc1ccc(-c2nc3ccc(C)cn3c2Nc2ccccc2C)cc1` under VDR inhibitor: 2%
Entry of `CCc1ccccc1NC(=O)c1ccc(Cn2nc(N3CCN(c4ccccc4)CC3)ccc2=O)o1` under VDR inhibitor: 1%
Entry of `Cc1cc2ccccc2cc(C)c1=O` under VDR inhibitor: -7%
Entry of `Cc1c(Cl)cccc1NC(=O)CSCC(N)=O` under VDR inhibitor: -4%

(continued)
SMILES | VDR inhibitor
O=C(NCc1ccc2c(c1)OCO2)c1cc(-c2ccc(Cl)cc2Cl)on1 | -8%
CCCS(=O)(=O)c1c(S(=O)(=O)CCC)c2c(C)cccn2c1C(N)=O | -15%
Cc1ccc(-c2[nH]c3ccccc3c2SCCNC(=O)c2cc3ccccc3oc2=O)cc1 | 15%
Cc1cc(=O)oc2cc(OCC(=O)N3CCN(c4ccccc4)CC3)c(Cl)cc12 | -4%
O=C(CSC(=S)N1CCCCC1)c1c(F)cccc1F | ?
CCOCCCNC(=O)c1ccc(N(C)S(=O)(=O)c2ccc(OC)cc2)cc1 | 11%
C=CCNc1nc2c(c(=O)[nH]c(=O)n2C)n1CC(O)COc1ccc2ccccc2c1 (configuration not stated) | 3%
Cn1c2ccccc2c(=O)c2cc(C#Cc3ccsc3)ccc21 | -4%
CC[C@@H](C)[C@H](NS(=O)(=O)c1cccc2ccccc12)C(=O)N[C@H](C=O)Cc1c[nH]c2ccccc12 | 32µM*
NS(=O)(=O)c1ccc(CCNC(=S)Nc2ccccc2)cc1 | 4%
CCOC(=O)C1=C(C)NC2=C(C(=O)CC(C)(C)C2)C1c1ccc(N(C)C)cc1 (configuration not stated) | 1%
O=C(O)c1cccc(S(=O)(=O)N2CCC(n3nnc4cc(C(F)(F)F)ccc43)CC2)c1 | -26%
Cc1nn(CCC#N)c2nc(-c3ccccc3)cc(C(F)(F)F)c12 | -5%
CCn1cc(C(=O)N[C@H](C(=O)NCCCOC)C(C)C)c(=O)c2cc3c(cc21)OCO3 | -5%
Cc1ccc(CN2CC34C=CC(O3)C(C(=O)NCc3ccc5c(c3)OCO5)C4C2=O)cc1 (configuration not stated) | -20%
Cc1ccc(NC2=C(Cl)C(=O)OC2OC(=O)c2ccco2)c(C)c1 (configuration not stated) | -6%

Further entries:
structure	VDR inhibitor
CSc1nc2n(n1)C(c1ccccn1)C1=C(CC(C)(C)CC1=O)N2 (configuration not stated)	-10%
COc1ccc(C(=O)NNC(=O)CSc2nnc(-c3ccc(O)cc3)n2C)cc1	7%
Cc1ccc(S(=O)(=O)NC2OC(=O)C(Cl)=C2Cl)cc1 (configuration not stated)	-7%
CC(O)C(NS(=O)(=O)c1ccc(Cl)cc1)C(=O)OCC(=O)Nc1cccnc1Cl (configuration not stated)	-20%
COc1ccc(NC(=O)C2CSC(C)(C)N2C=O)cc1 (configuration not stated)	-15%
Cc1noc(C)c1NC(=O)N(C)C[C@H]1Oc2c(NS(=O)(=O)c3cccs3)cccc2C(=O)N([C@H](C)CO)C[C@@H]1C	-29%
CCOc1ccc(CCNC(=O)c2sc3ncccc3c2-n2c(C)ccc2C)cc1	9%
O=C(COc1ccc(Cl)cc1)NC(=S)Nc1ccccc1N1CCOCC1	0%
Cc1cc(C)c2c(=O)cc(C(=O)NCc3ccccc3)oc2c1	-2%
O=C(OCc1c(Cl)cccc1Cl)c1cccnc1Cl	-6%
C=CCNC(=S)NNC(=O)COc1ccc(Br)cc1	-18%
Cc1nnc(-c2ccccc2)c(=O)n1/N=C/c1c(O)ccc2ccccc12	-2%
CC(=O)O/N=C(/c1nonc1N)N1CCN(c2ccc([N+](=O)[O-])cc2Cl)CC1	2%
COc1ccc2oc(C(=O)OCC(=O)N3CCCC(C)C3)c(C)c2c1 (configuration not stated)	0%
O=C(CCNS(=O)(=O)c1ccccc1Cl)N1CCN(c2ccccn2)CC1	-21%
CCn1c(CSc2nnc(-c3ccncc3)n2CCOC)nc2cc(C(=O)O)ccc21	13µM*
COc1nc(-c2ccccc2)ccc1-c1noc(-c2ccccc2Br)n1	10%
C(=N\Nc1ncnc2ccccc12)/c1ccccc1	-1%
Cc1n[nH]c(=O)nc1N/N=C/c1ccco1	-20%
CCOC(=O)CC(=O)NC(C)(C)CCCCC(C)(C)NC(=O)CC(=O)OCC	-27%
COc1ccc(/C=N/c2nc3ccccc3n2CCN2CCCCC2)cc1OC	5%
Cc1cccc2c1-c1sc(C(=O)NCCCN3CCN(c4ccccc4F)CC3)cc1CO2	0%
CCCc1[nH]nc2c1C(c1c(C)nn(-c3ccccc3)c1Cl)C(C#N)=C(N)O2 (configuration not stated)	3%
O=C1NCC(NC(=O)C(F)(F)F)c2cc3c(cc21)OCO3 (configuration not stated)	5%
Cc1ccc(C2=NNC(C(O)C(O)C(O)C(C)O)S2)cc1 (configuration not stated)	5%
CC(C)NC(=O)COC(=O)c1ccccc1C(=O)c1ccccc1	6%
CC1Cc2ccccc2N1c1ncnc2c1nnn2Cc1ccccc1Cl (configuration not stated)	2%
CCc1ccc2ncc3c(-c4ccccc4)nn(-c4ccccc4)c3c2c1	6%
CN1/C(=C/C=C(C#N)C#N)C=Cc2ccccc21	-5%
CC(CCc1ccccc1)NC(=O)CNC(=S)N(Cc1cccs1)C1CCCC1 (configuration not stated)	-4%
CCN1/C(=N\N)c2cccc3cccc1c23	-24%
C[C@]12CCC(=O)C[C@@H]1CC[C@@H]1[C@@H]2CC[C@]2(C)[C@@H](C(=O)COC(=O)CCC(=O)O)CC[C@@H]12	-5%&-8%

A draw from above in order of number of heavy atoms, low to high.
structure	VDR inhibitor
COc1ccc(C(=O)NCC2CCCO2)cc1 (configuration not stated)	-7%
CC(=O)N(c1cccc(C(F)(F)F)c1)c1nc(/C=C/C(=O)O)cs1	-7%
CC(=O)N1CCN(C(=O)CCc2nc3sc4c(c3c(=O)[nH]2)CCCC4)CC1	-6%
CCOc1ccc(CN(C)C(=O)c2ccc3c(c2)NC(=O)C(C)S3)cc1OC (configuration not stated)	4%
CN(c1ccccc1)S(=O)(=O)c1cccc(C(=O)Nc2ccc3c(c2)CCC3)c1	1%
CCOc1ccc(CCNC(=O)c2sc3ncccc3c2-n2c(C)ccc2C)cc1	9%
CCc1ccccc1NC(=O)c1ccc(Cn2nc(N3CCN(c4ccccc4)CC3)ccc2=O)o1	1%

Additional entries:
structure	VDR inhibitor
O=c1ccn([C@@H]2O[C@H](CNS(=O)(=O)C3CC3)[C@@H](O)[C@H]2O)c(=O)[nH]1	5%
COc1ccc(CCNC(=O)c2c(C)nn(-c3ccccc3)c2Cl)cc1	14%
O=C(CCN1CCN(c2ccccc2)CC1)N/N=C/c1ccccc1O	19%
O=C(NCC(=O)N1CCN(c2ccccc2)CC1)c1ccco1	7%
CCN(c1ccccc1)S(=O)(=O)c1cc(C(=O)Nc2ccc(F)c(F)c2)ccc1F	-18%
CCN(CC)C(=O)CN1C(=O)C2(OCC(C)(C)CO2)c2ccccc21	-24%
COc1ccc(COc2cc(-c3cccc(OC)c3)nc3ccc(NC(=O)c4ccc(N(C)C)cc4)cc23)cc1	-3%&-14%
CC1=C(C(N)=O)C(c2ccc(C)o2)C(C(N)=O)=C(C)N1	2%
Cc1cc(-c2n[nH]c(=S)o2)c(C)n1-c1ccccc1	-7%
COc1ccc(S(=O)(=O)c2cnc3ccccc3n2)cc1	-1%
CCSc1nnc(CCNC(=O)OC(C)(C)C)o1	8%
COC(=O)c1ccccc1NC(=O)CSc1n[nH]c(-c2ccncc2)n1	2%
COC(=O)c1ccc(COc2ccc(-c3nn[nH]n3)cc2)cc1	8%
CC1(C)Cc2ccccc2-c2nnc(-c3ccc(O)cc3)n21	0%
COc1ccc(C(=O)NCCS(=O)(=O)NCc2ccccc2)cc1	-20%
CCOCCCNC(=O)Cc1ccc(OC)c(OC)c1	-11%

Shown with values ahead of the structure: entries from further up
| VDR inhibitor | structure |
| --- | --- |
| 8% | COC(=O)c1ccc(COc2ccc(-c3nn[nH]n3)cc2)cc1 |
| 0% | CC1(C)Cc2ccccc2-c2nnc(-c3ccc(O)cc3)n21 |

Next compounds:
structure	VDR inhibitor
Cc1ccc(C)c(NC(=O)COC(=O)CNC(=O)c2ccccc2Cl)c1	4%
COc1cc(/C=C2\C(=O)ON=C2c2ccccc2)cc(Br)c1O	25µM*
CCOC(=O)CSc1ncnc2c1sc1nc(N3CCOCC3)c3c(c12)CCCC3	11%
Cc1ccc(C(C)NC(=O)Cc2cccs2)cc1C (configuration not stated)	-5%
COCCCNC(=O)/C=C/c1ccc(Cl)cc1	-13%
Cn1nnnc1SCCNCc1ccccc1OCc1ccc(Cl)cc1	-10%
O=C(NNC(=O)c1ccc(Cl)cc1Cl)c1cnccn1	-28%
C=CCn1c(COc2ccccc2)nnc1SCC(=O)O	14%
CCOc1ccc(CNS(=O)(=O)c2ccc3c(c2)CCCN3C(C)=O)cc1OC	-2%
CC(=O)Nc1ccc(S(=O)(=O)NCC(=O)OCC(=O)NNC(=O)c2ccccc2)cc1	4%
O=C(COC(=O)C1CCN(c2ccc(C(F)(F)F)cn2)CC1)c1ccc(Cl)cc1	-10%
Cn1ccnc1C(O)c1cc(C(C)(C)C)c(O)c(C(C)(C)C)c1 (configuration not stated)	-6%
CC(=O)Nc1ccc([N+](=O)[O-])cn1	19%
COc1ccc(C(=O)NCC(c2cccnc2)N2CCN(c3ccccc3)CC2)cc1OC (configuration not stated)	-6%
O=C(O)CNC(=O)c1cccc(C(F)(F)F)c1	11%
Cc1cc(NC(=O)c2cc([N+](=O)[O-])cc([N+](=O)[O-])c2)n(-c2ccccc2)n1	-13%
Cc1nn(C(=O)c2ccoc2C)c(N)c1-c1ccccc1	-14%
CC(C)N1CCC(N2CCN(C/C=C/c3ccccc3)CC2CCO)CC1 (configuration not stated)	11%
CCN(CC)c1ccc(NC(=O)c2cc3c(=O)n4cccc(C)c4nc3n2C)c(C)c1	6%
CCOC(=O)N1CCN(C(=O)c2ccccc2N(Cc2ccccc2)S(=O)(=O)c2ccc(OC)cc2)CC1	-6%
CCCC1Cc2[nH]c(=O)c(C#N)cc2CO1 (configuration not stated)	19%
COC(=O)C(NC(C)=O)(Nc1ccc(C)cn1)C(F)(F)F (configuration not stated)	1%
CCN(CC)CC#CCC(OC)(c1ccccc1)c1ccccc1	-9%
COC(=O)[C@]1(C)N[C@H](CN(C)S(=O)(=O)c2ccc(C(F)(F)F)cc2)[C@@H]2C(=O)N(C)C(=O)[C@@H]21	-7%
CCOC(=O)Cc1ccc(NC(=O)c2cccc([N+](=O)[O-])c2)cc1	-17%
COc1ccc(C(=O)c2cnc3cc4c(cc3c2C)OCO4)cc1	12%
CCc1cnc2c(c1SCc1c(F)cccc1Cl)c(=O)n(C)c(=O)n2C	-5%

High-throughput results as filed in PubChem BioAssay.
